Vif A3G = inhibitors of Vif binding to APOBEC3G peptide, primary screen, biochemical, TR-FRET, GST-Vif 1-94, biotin-A3G peptide, dose response retest (AID 1117319). TR-FRET GST-Vif / biotin-A3G peptide binding; higher % means a stronger effect; test concentration not given here; strong numbers were not always called active. inhibition, %; hits with a dose series show IC50 in µM. 260,000 tested, 0.57% active;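 active = above the screen mean plus three standard deviations and confirmed in dose response; inconclusive = results disagree or hit not tested in dose response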;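 also: Vif residues 1-94 fused to GST binding biotinylated APOBEC3G peptide 110-148; 0% = full assay without inhibitor and 100% = GST in place of GST-Vif; retest series ran down from 100 µM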
A1 inh = inhibitors of the anti-apoptotic protein A1, read as caspase activation; MEF A1-2A-BIM cells, Caspase-Glo 3/7 luminescence, 3 h; percent of clofoctol response, vehicle zero; 330,000 tested, 0.066% active; caspase activation, % (concentration not given with the values);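 active = over half of replicate activation scores above 10%, or exactly half above 10 with the replicate mean above 10; inconclusive = replicate mean below 10 yet half the replicates above 10; inactive = over half of replicates below 10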;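 also: wells of about 30 µL received 50 nL stock; many hits fall short of the cut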
Beta apoptosis = blocks beta cell apoptosis; INS-1E cytokine-induced death, ATP luminescence, 48 h; percent of positive-control rescue, neutral wells zero; protection from apoptosis, % (no concentration beside the values); 300,000 tested, 0.8% active; AID 435005;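 active = all replicates at 75% or more, or half of them and the mean; inconclusive = half reach 75% but not the mean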;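 also: 0% = cytokine-treated negative control wells and 100% = positive control rescue; higher means more ATP so stronger rescue from cytokine killing; wells of about 40 µL received 100 nL stock; the first replicate is given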
Calb FLC = C. albicans growth modulation with fluconazole; C. albicans CaCi-2 (fluconazole-resistant clinical isolate) + fluconazole, Alamar Blue growth, 48 h; growth inhibition, % (concentration not given with the values); 300,000 tested, 0.57% active;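 active = most replicates above 75%; inconclusive = exactly half above 75%; inactive = most below 75%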;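 also: all wells also contain fluconazole at 8 µg/ml as a sub-toxic cotreatment; 0% = median of DMSO wells and 100% = median of geldanamycin control wells; wells of about 8 µL received 7.5 nL stock; the first replicate is given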
rRNA inh HTS = selective bacterial rRNA inhibition in E. coli; 350,000 tested, 1.6% active; GFP signal change (wild-type ribosome), % (concentration not given with the values); AID 720706; E. coli WT GFP vs humanized-ribosome RFP mutants, fluorescence, 24 h; hits give low values; DMSO median 0, no signal -100;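 active = significant combined selectivity score with lowered wild-type GFP, culture density cut under 30%, mutant RFP and density less affected; inactive = any of these conditions unmet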; also: one replicate is shown; some compounds called inactive have numbers as strong as hits
MLL AF4-AF9 inh = MLL-AF4/AF9 protein interaction inhibition | inhibition, % at 10 µM | AlphaScreen, biotin-AF4 peptide binding to FLAG-AF9 | P42568 | 350,000 tested, 0.47% active;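 active = every replicate reaching a set inhibition limit, whatever the replicate mean, cut at about 25% in these data; inconclusive = mean inhibition reaches that limit but some replicates miss it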;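 also: 0% = plate neutral control median and 100% = total signal loss; the record names both 10 and 1 µM as test concentration; the first replicate is given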
Target sequence (P42568 whole entry, looked up): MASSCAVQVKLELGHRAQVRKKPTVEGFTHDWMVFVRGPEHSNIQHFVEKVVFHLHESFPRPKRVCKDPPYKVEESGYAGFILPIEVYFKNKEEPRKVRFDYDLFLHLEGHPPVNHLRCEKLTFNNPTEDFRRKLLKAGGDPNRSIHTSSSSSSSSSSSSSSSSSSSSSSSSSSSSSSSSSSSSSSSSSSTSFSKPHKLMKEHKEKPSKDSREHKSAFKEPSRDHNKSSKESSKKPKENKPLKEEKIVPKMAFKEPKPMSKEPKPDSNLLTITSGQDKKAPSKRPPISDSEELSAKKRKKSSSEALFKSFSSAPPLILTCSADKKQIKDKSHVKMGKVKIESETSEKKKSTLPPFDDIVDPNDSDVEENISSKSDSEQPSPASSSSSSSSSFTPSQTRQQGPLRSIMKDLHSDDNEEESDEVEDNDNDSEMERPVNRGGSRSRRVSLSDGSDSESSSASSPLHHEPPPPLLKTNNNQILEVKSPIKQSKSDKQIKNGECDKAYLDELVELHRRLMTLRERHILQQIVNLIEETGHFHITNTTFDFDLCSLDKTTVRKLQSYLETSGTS
T cruzi inh = blocks replication of Trypanosoma cruzi | AID 1885 | 300,000 tested, 1.4% active | T. cruzi beta-gal in NIH3T3, luminescence, 90 h | inhibition, % (no concentration beside the values);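 active = mean inhibition across valid replicates above about 55%, limit read from the data; inconclusive = mean below that limit but half or more replicates reach it; inactive = mean below it, under half of replicates reach it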;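 also: signal also drops with host cell toxicity which is not excluded here; 0% = plate median of DMSO wells and 100% = zero luminescence signal; higher percent means less beta-gal luminescence so fewer parasites; stock transfer was 50 nL into about 50 µL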
RanGTP-Impb inh = inhibitors of RanGTP-importin-beta interaction, primary screen, biochemical, FRET, CFP-Ran, YFP-importin-beta, homogeneous; AID 2216; 300,000 tested, 1.1% active; cell-free CFP-Ran/YFP-importin-beta FRET ratio; inhibition, % (concentration not given with the values);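 active = most replicates above 15%; inconclusive = exactly half above 15%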;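 also: 0% = DMSO wells and 100% = Ran loaded with GDP instead of GTP; wells of about 40 µL received 100 nL stock; the first replicate is given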
rRNA inh HTS OD600 = second read-out of rRNA inh HTS, no call of its own (marks repeat the call); OD600 change, %; measured here: OD600 growth;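 optical density of the mix in the first replicate; 0 = DMSO median and -100 = no signal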
rRNA inh HTS RFP = recorded beside rRNA inh HTS, whose call it bears; RFP signal change, %; measured here: RFP humanized mutant strains;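 first replicate; 0 = DMSO median and -100 = no signal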
Numbers without * were called inactive; ? = inconclusive; nt = no result given; & = joins results of further samples.

mol,Vif A3G,A1 inh,Beta apoptosis,Calb FLC,rRNA inh HTS,rRNA inh HTS OD600,rRNA inh HTS RFP,MLL AF4-AF9 inh,T cruzi inh,RanGTP-Impb inh
CC(OC(=O)c1ccccc1Br)C(=O)Nc1nc(-c2cccc([N+](=O)[O-])c2)cs1 (stereo unspecified),1.7%,-0.7,-0.5,-5.8,nt,nt,nt,nt,4.4,-2.9
Cc1cccc(NC(=O)CSc2nnc(CSc3nc(C)cc(C)n3)n2Cc2ccco2)c1,2.9%,-1.3,5.4,-11.8,nt,nt,nt,nt,18.7,-3.0
Cn1c(CN2CCCCC2)nc2cc(NS(=O)(=O)c3ccc(Cl)cc3)ccc21,9.8%,-0.3,-1.1,-1.0,nt,nt,nt,nt,8.9,2.8
COC(=O)C1CCCN1S(=O)(=O)c1ccc([N+](=O)[O-])cc1 (stereo unspecified),nt,0.2,3.1,8.3,18.2,10.7,0.7,-2.6,21.0,10.6
CC(=O)Cc1nsc(NC(=O)c2cn(-c3ccccc3)nc2-c2ccc(Br)cc2)n1,22.1%,0.2,-0.7,-12.5,nt,nt,nt,nt,-39.7,1.6
CCN(CC)CCCN1C(=O)C(=O)/C(=C(/O)c2ccc(OC)cc2)C1c1ccco1 (stereo unspecified),nt,0.3,-6.0,?,6.7,-3.3,-5.8,-2.8,-13.8,-0.2
Cc1ccc(-c2csc(=S)n2CC(=O)OCC(=O)NCc2ccco2)cc1,5.5%,0.2,-2.8,-11.4,nt,nt,nt,nt,-2.1,-5.1
O=C(COC(=O)c1cncc(Br)c1)Nc1ccc(N2CCCCC2)cc1,-8.7%,-0.3,-4.1,nt,-0.6,8.3,6.7,1.2,nt,nt
Cc1onc(-c2ccccc2Cl)c1C(=O)N1CCN(c2ccc(F)cc2)CC1,nt,-0.1,nt,2.2,nt,nt,nt,2.2,1.9,-0.7
Cc1ccc(CCNC(=O)CNS(=O)(=O)c2ccc3nc(C)sc3c2)cc1,nt,0.2,-5.6,4.9,10.4,4.9,1.4,-2.1,0.4,3.4
O=[N+]([O-])c1cc(/C=N/Nc2nc3ccccc3[nH]2)c(O)cc1O,nt,-2.8,94.0*,87.8*,-62.2,-71.7,-33.0,41.2*,28.6,3.8
Cc1cc(C)cc(C(=O)Nc2ccncc2)c1,nt,-1.8,nt,?,-8.9,-6.9,-0.6,-2.7,52.2,0.4
Cc1ccc(Sc2ncccc2N)cc1,nt,-0.2,0.2,-3.8,12.1,9.3,4.1,-3.3,-5.9,1.0
CCn1c(C(Cc2ccccc2)NC(=O)COC)nc2ccccc21 (stereo unspecified),0.8%,0.9,-3.9,17.8,1.9,-1.2,-1.7,1.1,-1.4,?
CCOc1ccc(C2=Nc3ccccc3C(c3ccc(N4CCOCC4)cc3)=NN2)cc1,11.4%,-1.7,-5.8,-30.0,nt,nt,nt,nt,22.3,-4.5

Copied from the list.
In MLL AF4-AF9 inh, O=C(COC(=O)c1cncc(Br)c1)Nc1ccc(N2CCCCC2)cc1 is listed with 1.2
In Calb FLC, CCOc1ccc(C2=Nc3ccccc3C(c3ccc(N4CCOCC4)cc3)=NN2)cc1 is listed with -30.0
In A1 inh, CCN(CC)CCCN1C(=O)C(=O)/C(=C(/O)c2ccc(OC)cc2)C1c1ccco1 (stereo unspecified) is listed with 0.3

Other entries follow.
mol,Vif A3G,A1 inh,Beta apoptosis,Calb FLC,rRNA inh HTS,rRNA inh HTS OD600,rRNA inh HTS RFP,MLL AF4-AF9 inh,T cruzi inh,RanGTP-Impb inh
CC(C)(C)OC(=O)N1CCOCCOCCNCCOCCOCC1,21.5%,0.1,-2.4,-4.3,nt,nt,nt,nt,-20.6,0.0
CN(c1ccc(O)cc1)c1nc(-c2cccnc2)cs1,nt,-0.2,-1.1,40.0,-12.4,-11.5,-4.2,0.5,2.8,3.1
CCc1cc2c(=O)c(-c3nc4ccccc4[nH]3)coc2cc1OC(=O)N1CCOCC1,-0.8%&-4.3%,-0.3,5.5,-4.3,nt,nt,nt,nt,1.2,4.8
COC(=O)c1cn(-c2ccc(Cl)cc2)c(=O)c2ccccc12,18.1%,0.0,8.2,0.1,nt,nt,nt,nt,-9.6,-1.0
COc1ccc(OCc2cc(C(=O)NC(C)Cc3cccnc3)no2)c(Cl)c1 (stereo unspecified),nt,1.0,-2.8,1.2,-30.1,-28.9,-7.4,1.6,6.1,0.8
Fc1ccc(OCc2nn3cnnc3s2)cc1,-3.2%,-1.1,-2.5,-24.0,nt,nt,nt,nt,-2.0,-2.6
CCN(CC)CCCN1C=C2C(=O)C(C)(OC(=O)C3CCCC3)C(=O)C(c3ccccc3)=C2C=C1CCCC(=O)OC (stereo unspecified),nt,0.6,-6.9,0.2,7.9,4.8,3.0,nt,32.7,?
CCCCc1ccc(NC(=O)Nc2cccnc2)cc1,nt,-5.2,18.2,65.8,-47.1,-77.0,-5.8,1.9,13.7,?
O=C(CC12CC3CC(CC(C3)C1)C2)N1CCOCC1,-0.5%,0.0,-11.1,15.0,nt,nt,nt,nt,2.3,1.3
O=C(O)Cn1nc(C(F)(F)F)c2c1CCCC2,9.2%,0.0,-4.3,-21.1,9.0,12.3,0.5,-2.1,-6.7,?
COc1cccc(CN2CCNC(=O)C2CC(=O)NCCn2nc(C)cc2C)c1OC (stereo unspecified),>100µM*,0.9,-7.4,2.9,13.7,8.4,2.4,0.6,-16.1,0.1
COc1ccc(/C=C/C(=O)OCC(=O)NCc2cccs2)cc1OC,nt,-0.4,1.5,-13.3,-16.0,-37.5,29.5,2.4,-17.9,0.3
Cn1c(N)c(S(=O)(=O)N2CCN(c3cccc(Cl)c3)CC2)c(=O)n(C)c1=O,nt,0.3,-1.9,-0.2,3.0,-0.2,-1.9,2.9,1.9,-1.0
N/C(=N\OC(=O)CCCc1ccccc1)c1ccccn1,0.3%,-0.8,2.9,5.2,nt,nt,nt,-0.2,3.5,-1.5
CC[C@H]1c2[nH]c3ccccc3c2C[C@H]2C(=O)N(c3ccc(F)cc3)C(=O)N21,nt,-0.3,7.8,-2.8,-10.6,-22.5,-7.5,-8.2,0.6,-4.9
CCOc1ccc(C2/C(=C(\O)c3ccc4c(c3)OCCO4)C(=O)C(=O)N2CCCN2CCOCC2)cc1OC (stereo unspecified),nt,-0.7,-3.5,-16.7,-1.2,-0.4,0.9,0.4,0.8,2.8
COc1ccccc1NC(=O)CSc1nc2sc3c(c2c(=O)n1-c1ccccc1)CCN(C)C3,nt,0.3,-20.2,-0.3,-10.8,1.2,2.1,1.3,1.1,-0.6
CCS(=O)(=O)Nc1ccc(C2=NN(C(=O)c3ccco3)C(c3cccs3)C2)cc1 (stereo unspecified),nt,0.2,nt,1.2,-2.6,-18.1,5.2,5.3,-0.5,-1.2
CCOC(=O)c1ccc(NC(=O)CSc2nnc(CC)o2)cc1,nt,0.1,1.9,1.7,-1.3,0.2,-1.3,-2.6,3.6,7.3
COc1ccc(-c2cc(C(=O)Nc3cccnc3Cl)no2)cc1,nt,-5.2,-6.6,2.7,2.9,7.8,-2.7,-1.9,-12.3,-4.7
O=C(NCc1ccco1)c1ccc(OCC2CCCO2)cc1 (stereo unspecified),5.7%,0.4,-2.2,-5.0,nt,nt,nt,nt,2.3,-0.6
O=C(Nc1ccc2oc(-c3cccnc3)nc2c1)c1cccnc1,-1.5%,0.6,1.2,?,nt,nt,nt,nt,-14.7,?
Cc1nn(-c2ccc(Cl)cc2)c2[nH]c(CCl)cc(=O)c12,1.8%,-0.4,0.8,-4.8,-19.1,-11.8,1.3,-5.9,-10.6,3.3
Cc1ccc(S(=O)(=O)N2C(=O)CCC2C(=O)O/N=C(\N)c2ccc([N+](=O)[O-])cc2)cc1 (stereo unspecified),-6.2%,1.6,-4.5,-6.8,24.0,18.8,3.5,-1.8,15.3,-10.7
Cc1cc(C)n(CC(O)COc2ccc(C(C)(C)C)cc2)n1 (stereo unspecified),3.5%,0.8,nt,0.7,-29.2,-55.0,-2.6,3.6,-28.9,9.5
CCn1c(SCc2nc3ccccc3s2)nc2cc(S(=O)(=O)N3CCOCC3)ccc21,nt,-0.6,4.9,12.3,-3.1,-11.2,-0.4,5.4,26.1,-2.1
CCN1CCN(c2ccc(NC(=O)c3cc(OC)c(OC)c(OC)c3)cc2)CC1,nt,0.2,1.2,-2.8,1.8,3.4,-0.4,-2.2,7.1,-1.2
COc1ccc(OC)c(NC(=O)CN2c3cccc4cccc(c34)S2(=O)=O)c1,nt,-0.4,-9.3,nt,-5.4,-10.1,-1.7,5.1,nt,nt
Cc1ccc(NS(=O)(=O)c2ccc(N3C(=O)CCC3=O)cc2)cc1,27.6%,-1.7,-0.5,-16.0,nt,nt,nt,nt,-4.7,-5.8
COc1ccc(C(=O)NCC(c2ccco2)N2CCCC2)cc1S(=O)(=O)N1CCCCC1C (stereo unspecified),-0.4%,0.2,-0.7,nt,-6.1,-6.7,-2.0,3.2,nt,nt
COCCCNC(=O)CC(NS(=O)(=O)c1ccc(OC)cc1)c1ccc(OC)cc1 (stereo unspecified),-3.8%,2.4,1.8,-8.4,nt,nt,nt,nt,0.7,-1.2
O=C(O)CCc1ccc(-c2ccccc2)n1NC(=O)c1cccs1,-6.0%,0.0,2.6,2.3,5.3,0.5,0.1,-0.1,-19.2,1.6
CCCN(CCC)CCNc1c(N2CCN(C(=O)OCC)CC2)c(=O)c1=O,-1.4%,0.5,-2.0,-7.9,7.4,6.7,-4.3,-5.3,1.9,-3.0
CCCC[C@@]1(C2CCCC2)Cc2cc(OCC(=O)O)c(Cl)c(Cl)c2C1=O,nt,0.9,3.4,nt,-41.9,-62.9,3.3,-3.8,nt,nt
COc1ccc(NC(=O)CC(C(=O)O)N2CCCCC2)cc1 (stereo unspecified),2.5%,0.4,-5.1,0.6,nt,nt,nt,nt,-6.7,-1.4
O=C(c1ccc(F)cc1)C1CCN(C(=O)Nc2ccc(F)cc2F)CC1,nt,0.0,3.1,-3.8,3.0,6.5,1.6,-2.6,-10.5,1.0
O=C(NOC(=O)c1ccccc1Cl)c1cccs1,-0.4%,-0.4,-9.7,-12.4,nt,nt,nt,nt,-5.5,-1.5

Ordered by length of the SMILES (rising): three of the compounds above.
mol,Vif A3G,A1 inh,Beta apoptosis,Calb FLC,rRNA inh HTS,rRNA inh HTS OD600,rRNA inh HTS RFP,MLL AF4-AF9 inh,T cruzi inh,RanGTP-Impb inh
O=C(O)CCc1ccc(-c2ccccc2)n1NC(=O)c1cccs1,-6.0%,0.0,2.6,2.3,5.3,0.5,0.1,-0.1,-19.2,1.6
O=C(c1ccc(F)cc1)C1CCN(C(=O)Nc2ccc(F)cc2F)CC1,nt,0.0,3.1,-3.8,3.0,6.5,1.6,-2.6,-10.5,1.0
COCCCNC(=O)CC(NS(=O)(=O)c1ccc(OC)cc1)c1ccc(OC)cc1 (stereo unspecified),-3.8%,2.4,1.8,-8.4,nt,nt,nt,nt,0.7,-1.2

Source: PubChem BioAssay

This is a subset. The share of hits here may be higher or lower than overall.
